HCMV NEC inh: disrupts HCMV UL50-UL53 complex binding | HTRF UL50-UL53 interaction, normalized percent inhibition | inhibition, % (concentration not given with the values) | hit rate 0.15% among 190,000 | AID 1918969;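 active means both replicates at 50% or more, plus weaker picks with an unusually low signal ratio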;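 further: stock transfer was 100 nL into about 20 µL; 0% = negative control wells and 100% = wells with untagged competitor protein; inactives centre near -12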
Sa growth inh: S. aureus growth inhibition | relative growth, % (no concentration beside the values) | AID 720641 | S. aureus RN4220 growth, OD600, 20 h, 42 °C; active compounds read low | hit rate 0.53% among 170,000;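 active means growth at 42 °C up to 50% and 20 or more points under that at 30 °C, or under 10% at both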;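 further: 300 nL library stock went into each well; scaled to the means of positive and negative controls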
GIV Gai3 FP: inhibitors of GIV GBA-motif binding to rat Galpha-i3; hit rate 0.42% among 210,000; percent of control (FP), % (no concentration beside the values); P08753; Galpha-i3/FITC-GIV peptide fluorescence polarization, 90 min; active compounds read low; scaled: aluminum fluoride 0%, vehicle 100%;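 active means replicate mean at 85% of control or lower, very high polarization wells dropped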;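 further: wells of about 15 µL received 100 nL stock; the first replicate is given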
Target sequence (P08753 whole entry, looked up): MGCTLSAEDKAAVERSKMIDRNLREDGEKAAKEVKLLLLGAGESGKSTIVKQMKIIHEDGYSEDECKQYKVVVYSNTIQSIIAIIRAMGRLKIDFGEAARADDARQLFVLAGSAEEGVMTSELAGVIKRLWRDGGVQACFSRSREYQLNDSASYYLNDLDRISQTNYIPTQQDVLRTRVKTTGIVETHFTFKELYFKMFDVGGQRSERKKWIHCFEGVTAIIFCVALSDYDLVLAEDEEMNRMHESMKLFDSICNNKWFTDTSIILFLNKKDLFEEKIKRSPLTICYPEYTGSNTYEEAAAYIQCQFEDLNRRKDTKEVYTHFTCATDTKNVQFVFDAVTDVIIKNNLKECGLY
Sa growth inh second temp: also measured in Sa growth inh; calls as there; relative growth, %; measured here: growth at 30 °C;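 optical density after 20 h as mean of two plates; 100% = untreated growth and lower means inhibition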
Numbers without * were called inactive; x = no result given; & = joins results of further samples.

The first 25 compounds (preview)
SMILES	HCMV NEC inh	Sa growth inh	Sa growth inh second temp	GIV Gai3 FP
COc1ccc(-c2c(C(=O)O)c3cc(OC)c(OC)cc3c(=O)n2C)cc1O	x	115	93	100
O=C(OCC(=O)N1CCCC1=O)c1cccc2ccccc12	-70	99	88	x
CCOC(=O)c1cnc(COc2ccc(C(C)(C)C)cc2)[nH]c1=O	x	97	86	99
CCOC(=O)c1cc(/C(N)=N/O)c(C)nc1C(F)(F)F	x	114	84	104
CCOC(=O)c1cccc(NC(=O)Cn2nc3c(cc2=O)CCCC3)c1	x	94	84	94
Cc1ccc(CCNC(=O)c2ccc3c(c2)NC(=O)C2CCCN32)cc1 (stereo not given)	-29	x	x	114
CN(C)c1ccc(CNC(=O)c2cccc(N3CCCS3(=O)=O)c2)cc1	12	x	x	105
CS(=O)(=O)c1ncc(OCc2ccccc2)cn1	-16	105	87	102
CN(C)c1ccc(C(CNC(=O)c2ccccc2F)N2CCc3ccccc32)cc1 (stereo not given)	x	93	80	98
Cc1cc(C)n(-c2ccc(N/N=C(/C#N)S(C)(=O)=O)cc2)n1	-64	95	73	100
CC(=O)c1ccccc1NS(=O)(=O)c1cc2c(cc1C)NC(=O)CO2	x	116	87	100
CCOC(=O)c1oc2ccccc2c1CSc1nnc(Cc2ccccc2)n1C	8	124	91	x
CCOC(=O)c1ccc(N2CCN(c3cccc(OC)c3)CC2)c(NC(=O)Nc2ccc(CC)cc2)c1	-8	100	72	110
CCc1nc2c(=O)oc3ccccc3c2n1C	2	x	x	98
CN(C)c1cc[n+](C(=O)N2CCOCC2)cc1	x	64	44	110
NS(=O)(=O)c1ccc(NC(=O)CSc2nc3ccccc3s2)cc1	-17	x	x	103
O=C(c1ccccc1)c1ccccc1C(=O)N1CCN(c2ccccc2)CC1	-10	101	95	101
Cc1nnc(C)n1/N=C/c1cc(Br)cc(Br)c1O	x	96	50	171
CCS(=O)(=O)N1CCc2cc(C(=O)N3CCN(c4cccc(C(F)(F)F)c4)CC3)ccc21	4	104	82	103
Cc1ccc(Nc2nnc(SC(C)C(=O)N3CCC(C)CC3)s2)cc1 (stereo not given)	-7	94	96	x
CSC(=CC(=O)c1sc2scc(C)c2c1C)SC	-10	82	82	105
COc1cc(NC(C)=O)ccc1/C=N/NC(N)=S	-70	110	82	105
c1ccc2c(c1)nc(NCC1CCCO1)c1nnnn12 (stereo not given)	x	84	66	120
CCN(CC(=O)Nc1ccc2[nH]c(=O)[nH]c2c1)Cc1nc2ccccc2c(=O)[nH]1	-2	85	91	x
CCNS(=O)(=O)c1ccc(OC)c2ncccc12	-11	89	92	x

Main list (from the top)
SMILES	HCMV NEC inh	Sa growth inh	Sa growth inh second temp	GIV Gai3 FP
COc1ccc(-c2c(C(=O)O)c3cc(OC)c(OC)cc3c(=O)n2C)cc1O	x	115	93	100
O=C(OCC(=O)N1CCCC1=O)c1cccc2ccccc12	-70	99	88	x
CCOC(=O)c1cnc(COc2ccc(C(C)(C)C)cc2)[nH]c1=O	x	97	86	99
CCOC(=O)c1cc(/C(N)=N/O)c(C)nc1C(F)(F)F	x	114	84	104
CCOC(=O)c1cccc(NC(=O)Cn2nc3c(cc2=O)CCCC3)c1	x	94	84	94
Cc1ccc(CCNC(=O)c2ccc3c(c2)NC(=O)C2CCCN32)cc1 (stereo not given)	-29	x	x	114
CN(C)c1ccc(CNC(=O)c2cccc(N3CCCS3(=O)=O)c2)cc1	12	x	x	105
CS(=O)(=O)c1ncc(OCc2ccccc2)cn1	-16	105	87	102
CN(C)c1ccc(C(CNC(=O)c2ccccc2F)N2CCc3ccccc32)cc1 (stereo not given)	x	93	80	98
Cc1cc(C)n(-c2ccc(N/N=C(/C#N)S(C)(=O)=O)cc2)n1	-64	95	73	100
CC(=O)c1ccccc1NS(=O)(=O)c1cc2c(cc1C)NC(=O)CO2	x	116	87	100
CCOC(=O)c1oc2ccccc2c1CSc1nnc(Cc2ccccc2)n1C	8	124	91	x
CCOC(=O)c1ccc(N2CCN(c3cccc(OC)c3)CC2)c(NC(=O)Nc2ccc(CC)cc2)c1	-8	100	72	110
CCc1nc2c(=O)oc3ccccc3c2n1C	2	x	x	98
CN(C)c1cc[n+](C(=O)N2CCOCC2)cc1	x	64	44	110
NS(=O)(=O)c1ccc(NC(=O)CSc2nc3ccccc3s2)cc1	-17	x	x	103
O=C(c1ccccc1)c1ccccc1C(=O)N1CCN(c2ccccc2)CC1	-10	101	95	101
Cc1nnc(C)n1/N=C/c1cc(Br)cc(Br)c1O	x	96	50	171
CCS(=O)(=O)N1CCc2cc(C(=O)N3CCN(c4cccc(C(F)(F)F)c4)CC3)ccc21	4	104	82	103
Cc1ccc(Nc2nnc(SC(C)C(=O)N3CCC(C)CC3)s2)cc1 (stereo not given)	-7	94	96	x
CSC(=CC(=O)c1sc2scc(C)c2c1C)SC	-10	82	82	105
COc1cc(NC(C)=O)ccc1/C=N/NC(N)=S	-70	110	82	105
c1ccc2c(c1)nc(NCC1CCCO1)c1nnnn12 (stereo not given)	x	84	66	120
CCN(CC(=O)Nc1ccc2[nH]c(=O)[nH]c2c1)Cc1nc2ccccc2c(=O)[nH]1	-2	85	91	x
CCNS(=O)(=O)c1ccc(OC)c2ncccc12	-11	89	92	x
Cc1c2cnn(CC(=O)NCCCN3CCCC3=O)c(=O)c2c(C)n1Cc1ccc(F)cc1	4	99	92	100
O=C(Cn1ncn2c(cc3cc(F)ccc32)c1=O)NCCCN1CCOCC1	-4	101	100	101
CC(=O)Nc1ccc(OCC(=O)N(c2ccccc2)C(C)C)cc1	-15	87	89	x
COc1ccc(OC)c(CNc2ccc3c(c2)CCC3)c1	-11	42	3	108
CC(CNCc1ccc2c(c1)OCO2)NCc1ccc2c(c1)OCO2 (stereo not given)	x	109	89	104
Cc1ccc(OCC(=O)Nc2ccc3nc(SCC(=O)N4CCCC4)sc3c2)cc1	-21	109	86	104
CN(C)C(=O)NC1CC(=O)N(c2ccc3c(c2)OCCO3)C1 (stereo not given)	-27	90	84	104
CCOC(=O)c1c(-c2ccccc2)csc1NC(=O)c1nc(S(=O)(=O)CC)ncc1Cl	5&15	93	71	108&101
Cc1ccc(C2=NN(C(=O)CSc3nc(N)cc(N)n3)C(c3ccco3)C2)cc1 (stereo not given)	-22	95	89	x
COc1ccccc1NS(=O)(=O)c1cccc(C(F)(F)F)c1	-5	100	104	100
COc1cccc(N2CCN(C(=O)c3ccc(CS(=O)c4cccc(Cl)c4)o3)CC2)c1 (stereo not given)	x	114	77	109
CC(C)(C)c1ccc(-c2nc3nc(CN4CCCC4)cc(=O)n3[nH]2)cc1	8	x	x	101
COc1cc2c3c(c1O)-c1c(cccc1OC)CC3[N+](C)(C)CC2 (stereo not given)	x	92	98	97
O=C(O)c1ccc(-c2ccccc2)o1	x	76	85	101
CN1Cc2ccccc2N(CC(=O)NCc2ccccc2)C1=O	x	103	70	106
CCCNC(=O)c1cc(C(C)C)on1	x	98	83	99
C=CCN1C(=O)CSc2ccc(C(=O)N3CCC(C)CC3)cc21	-11	96	84	99
Cn1cnnc1SCNC(=O)C(F)(F)F	-18	88	91	x
CC(C)(C)c1ccc(C(=O)N2CCC(c3noc(-c4ccc(S(=O)(=O)N5CCCC5)cc4)n3)CC2)cc1	-28	102	89	103
CCN(CC)CCNc1ccc(C(F)(F)F)cn1	-15	98	96	105
COc1ccc(OC)c(C2NC(=O)NC(C)=C2C(=O)OCCc2ccccc2)c1Br (stereo not given)	-6	x	x	104
O=S1(=O)C=C(Sc2nc3ccccc3s2)c2ccccc21	-24	39	39	103
COC(=O)C1CCN(C(c2ccccc2)c2sc3nc(-c4ccco4)nn3c2O)CC1 (stereo not given)	x	175	94	97
CN(C(=O)c1ccc2c(c1)CCO2)C(C)(C)C	-14	100	88	103
Cc1nn(C(C)C(=O)N(C)Cc2ccccc2)c(=O)c2c1sc1ccccc12 (stereo not given)	x	84	78	104
Carrying on:
SMILES	HCMV NEC inh	Sa growth inh	Sa growth inh second temp	GIV Gai3 FP
CCN(CC)C(=O)CCc1nc(-c2nn(-c3ccc(F)cc3)c(=O)n(C)c2=O)no1	-98	x	x	108
O=C(Cn1c(=O)cnc2ccccc21)Nc1ccccc1	-17	96	93	x
COC(=O)c1cc(C(=O)Nc2cccc(C)c2C)c(=O)[nH]c1C	-21	x	x	98
COc1cccc(CSc2nnc3n(CC4CCCO4)c(=O)c4sccc4n23)c1 (stereo not given)	6	x	x	95
O=c1oc2ccccc2c(O)c1/C=N/N1CCOCC1	4&-12	103	94	x
Cc1ccc2c(c1)c1c(n2CCC#N)CC[N+](C)(C)C1	x	113	95	100
COc1ccc(OC)c(-c2cn(S(=O)(=O)c3ccccc3)nc2N)c1	0	100	85	109
Cc1cc(C)nc(Sc2ccccc2)n1	-9	96	95	102
COc1ccc(-n2nc(C(=O)N3CCN(C4CCCCC4)CC3)c(=O)n(C)c2=O)cc1	0	x	x	100
CC(CCc1ccccc1)NC(=O)CSc1n[nH]c(-c2ccccc2)n1 (stereo not given)	x	97	85	103
CC1(C)C=C(C(N)=O)C(C)(C)N1OC(=O)c1ccco1	-2	109	96	x
CC(=O)N/N=C/c1ccc(C)c(C)c1C	-21	93	91	95
COc1ccc(Cl)cc1NC(=O)CSc1nc(=O)[nH]c2c1CCC2	x	98	95	99
COc1cc2c(-c3ccccc3Cl)nc3c(c(C)nn3-c3ccccc3)c2cc1OC	-20	97	85	107
CCOC(=O)c1[nH]c2ccc(OCC)cc2c1CCCN1C(=O)c2ccccc2C1=O	x	110	98	102
CC(C)Cc1ccc(S(=O)(=O)N2CC(C)CC(C)C2)cc1 (stereo not given)	x	102	94	103
CCS(=O)(=O)c1nc(S(=O)(=O)c2ccc(Cl)cc2)c(NC(C)C)s1	-12	102	87	101
Cc1ccc(NC(=O)c2c(C)oc3ccc(O)c(CN4CCCCC4)c23)cc1	-2	100	87	102
COc1ccccc1CNc1ccc(-c2nc(-c3ccncc3)no2)cc1[N+](=O)[O-]	-14	100	91	97
CCOc1ccc(N(CC)S(=O)(=O)N2CCCC(C(=O)Nc3cc(Cl)ccc3C)C2)cc1 (stereo not given)	x	96	66	105
C/C(CN1C(=O)CCC1=O)=N/NC(=O)C1CCN(S(=O)(=O)c2ccc(C)cc2)CC1	-18	95	94	104
COc1ccc(N(CC(=O)Nc2cccc(Cl)c2C)S(=O)(=O)c2c(C)nn(C)c2C)cc1	-14	115	88	101
CCN=C(Nc1ccc(C(C)(C)C)cc1)SCC1CC1	-32	77	81	102
Cc1ccc(S(=O)(=O)NCC(C)(C)N2CCOCC2)cc1C	-28	78	91	x
O=C(Nc1ccccc1)N1CCC(n2cnc3cccnc32)CC1	7	x	x	98
Cc1cccc(-c2nnc(SCC(=O)NC(=O)Nc3ccccc3F)n2Cc2ccco2)c1	-19	85	79	x
Cc1ccc2nc(-c3ccc(NC(=O)c4cc(Br)ccc4Cl)cc3)oc2c1	-18	x	x	99
CCOC(=O)c1sc(COc2ccc(C(C)(C)C)cc2)nc1C	-34	129	95	105
Cc1ccc2oc(=O)c3cnn(CC(=O)N4C(C)CCCC4C)c3c2c1 (stereo not given)	-4	97	84	95
CC(C)Cn1c(=O)c2sccc2n2c(CCC(=O)NC3CC3)nnc12	-9	x	x	103
O=C(CC(c1ccc(Cl)cc1)S(=O)(=O)c1ccccc1)c1cccs1 (stereo not given)	-30	125	81	x
COc1ccc(-c2cc(C(=O)Nc3c(C(=O)c4ccc(Cl)cc4)oc4ccccc34)no2)cc1	-20	101	87	102
CCN(CC(=O)NCc1ccc(F)cc1)Cn1cnc2ccccc21	-24	104	94	x
Cc1ccnc(NS(=O)(=O)c2ccc(NC(=O)C(C)(C)Oc3ccc(Cl)cc3)cc2)n1	-35	95	82	106
CCCC1OC2CC3C4CCC5=CC(=O)C=CC5(C)C4C(O)CC3(C)C2(C(=O)O)O1 (stereo not given)	15	108	109	95
O=C(O)CC(=O)Nc1cc(Cl)ccc1O	-23	93	84	96
CC1Oc2ccc(NC(=O)c3ccc(F)cc3)cc2NC1=O (stereo not given)	-23	x	x	100
Cc1oc2cc(O)ccc2c(=O)c1-c1ccccc1	8	124	97	x
Cc1nn(-c2ccccc2)c2oc(=O)c(NC(=O)c3ccc(F)cc3)cc12	-36	94	87	x
O=C(CSc1cnc2ccccc2n1)NC1CCCC1	-17	108	91	x
Oc1ccc(Br)cc1C=NCC1CCCO1 (stereo not given)	17	70	59	x
CCn1c(O)c(/C=N/N=C2/C(=O)N(C)c3ccccc32)c(=O)n(CC)c1=S	-2	88	91	x
c1cc2cc(C3=NCCN3)ccc2cc1C1=NCCN1	-83	100	78	99
COc1ccccc1CNC(=O)C1CCCN(C(=O)c2cnn(-c3ccc(F)cc3)c2-n2cccc2)C1 (stereo not given)	x	123	86	106
CCOC(=O)c1cnc2c(C)c(Cl)ccc2c1NCCc1ccccc1	-3	92	96	103
Cc1ccc(CNC(=O)CSC2=Nc3ccccc3N=C(c3ccc(F)cc3)C2)cc1	x	80	90	105
CC(C)c1ccc(CNC(=O)CCn2cnc3c([nH]c4ccc(F)cc43)c2=O)cc1	-19	x	x	95
C=CCN(C(=O)CN1CCOCC1)c1nc(C)c(-c2ccccc2)s1	-21	105	99	x
NC(=O)C1(c2ccccc2)CCOCC1	6	97	96	99

Screening results from PubChem BioAssay.
